# Compound activity: PubChem BioAssay, several laboratories
# ALR inh = inhibitors of human sulfhydryl oxidase ALR. P55789. purified ALR, DTT oxidation, H2O2 HRP-luminol luminescence. inhibition, % (test concentration not listed). 3.8% of 290,000 active. AID 485317;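 active = mean and each replicate at 75% or more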;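 also: stock transfer was 7.5 nL into about 7.5 µL; 0% = neutral wells and 100% = wells with inactivated enzyme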
# Target sequence (P55789 whole entry, looked up): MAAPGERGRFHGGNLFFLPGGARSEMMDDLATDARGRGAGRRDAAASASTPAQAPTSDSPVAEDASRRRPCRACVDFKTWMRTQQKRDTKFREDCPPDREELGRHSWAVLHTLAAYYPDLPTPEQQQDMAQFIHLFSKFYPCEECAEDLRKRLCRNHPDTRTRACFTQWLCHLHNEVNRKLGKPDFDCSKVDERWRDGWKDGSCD
# HNF4A DNA FP = change in binding of human HNF4 alpha to DNA; P41235; HNF4a-FITC DNA binding, fluorescence polarization, 1 h; activity change, % at 10 µM; 0.3% of 360,000 active; AID 1224865; in the data active = activity change above about 30%, passing the limit was not always enough;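 also: controls were the assay level and a saturating level of protein; the project sought stronger binding though the title names inhibitors; some compounds called inactive have numbers as strong as hits; positive values seem to mean higher polarization but the record does not say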
# Target sequence (P41235 whole entry, looked up): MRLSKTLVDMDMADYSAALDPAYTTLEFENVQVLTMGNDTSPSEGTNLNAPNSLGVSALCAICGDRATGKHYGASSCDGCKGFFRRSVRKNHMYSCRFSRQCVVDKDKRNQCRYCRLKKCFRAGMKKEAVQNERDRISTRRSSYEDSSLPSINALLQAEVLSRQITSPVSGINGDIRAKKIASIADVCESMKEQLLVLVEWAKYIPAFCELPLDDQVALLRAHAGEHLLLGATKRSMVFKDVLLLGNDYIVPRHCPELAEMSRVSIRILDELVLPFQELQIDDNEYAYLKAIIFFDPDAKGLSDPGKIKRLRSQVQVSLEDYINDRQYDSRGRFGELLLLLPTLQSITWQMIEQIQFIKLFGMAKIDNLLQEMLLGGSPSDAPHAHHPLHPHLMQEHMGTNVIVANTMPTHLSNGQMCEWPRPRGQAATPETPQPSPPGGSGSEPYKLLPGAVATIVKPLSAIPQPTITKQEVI
# E coli growth = blocks Escherichia coli growth. OD600, 23 h; stronger effect = lower value. OD600 absorbance (concentration not given with the values). 0.21% of 330,000 active. AID 1053175;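 active = OD600 absorbance below the run mean of sample wells minus 3.6 SD, in any replicate, cut at about 0.56 in these data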;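 also: stock transfer was 300 nL into about 60 µL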
# AF4-AF9 inh = blocks AF4 peptide binding to human AF9; 0.47% of 350,000 active; AlphaScreen, biotin-AF4 peptide binding to FLAG-AF9; inhibition, % at 10 µM; P42568; AID 651704;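 active = every replicate reaching a set inhibition limit, whatever the replicate mean, cut at about 25% in these data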;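 also: 0% = plate neutral control median and 100% = total signal loss; the record names both 10 and 1 µM as test concentration; the first replicate is given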
# Ecoli rRNA inh = inhibitors of bacterial rRNA selective over humanized ribosomes | E. coli WT GFP vs humanized-ribosome RFP mutants, fluorescence, 24 h; stronger effect = lower value; DMSO median 0, no signal -100 | AID 720706 | GFP signal change (wild-type ribosome), % (test concentration not listed) | 1.6% of 350,000 active;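 active = significant combined selectivity score with lowered wild-type GFP, culture density cut under 30%, mutant RFP and density less affected; inactive = any of these conditions unmet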; also: one replicate is shown; some compounds called inactive have numbers as strong as hits
# FGF22 binding = shifts melting point of recombinant human FGF22. calls only at 9.99 µM. Q9HCT0. recombinant FGF22 thermal shift, SYPRO orange fluorescence; percent of sucrose octasulfate shift, DMSO zero. 1.5% of 340,000 active;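 active = melting point raised past a set limit in the mean and every replicate; three in four hits are not shown here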
# Target sequence (Q9HCT0 whole entry, looked up): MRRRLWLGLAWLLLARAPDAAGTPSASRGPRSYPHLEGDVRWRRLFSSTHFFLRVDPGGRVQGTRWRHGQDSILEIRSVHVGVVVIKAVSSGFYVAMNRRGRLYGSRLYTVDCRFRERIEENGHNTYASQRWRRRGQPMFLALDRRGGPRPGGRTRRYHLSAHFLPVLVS
# Vif TR-FRET = HIV-1 Vif–A3G interaction blockers – biochemical, TR-FRET, GST-Vif 1-94, biotin-A3G peptide, dose response retest, primary screen (AID 1117319) | TR-FRET GST-Vif / biotin-A3G peptide binding; higher % means a stronger effect; test concentration not given here; strong numbers were not always called active | one-dose inhibition, %; IC50 in µM for titrated hits | 0.57% of 260,000 active;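 active = above the screen mean plus three standard deviations and confirmed in dose response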;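 also: Vif residues 1-94 fused to GST binding biotinylated APOBEC3G peptide 110-148; 0% = full assay without inhibitor and 100% = GST in place of GST-Vif; retest series ran down from 100 µM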
# Ecoli rRNA inh OD600 = further read-out of Ecoli rRNA inh, marked with its call; OD600 change, %; measured here: OD600 growth;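 optical density of the mix in the first replicate; 0 = DMSO median and -100 = no signal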
# Ecoli rRNA inh RFP = further read-out of Ecoli rRNA inh, marked with its call; RFP signal change, %; measured here: RFP humanized mutant strains;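 first replicate; 0 = DMSO median and -100 = no signal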
# Numbers without * were called inactive; i = inactive; x = not tested or not shown.
SMILES,ALR inh,HNF4A DNA FP,E coli growth,AF4-AF9 inh,Ecoli rRNA inh,Ecoli rRNA inh OD600,Ecoli rRNA inh RFP,FGF22 binding,Vif TR-FRET
Cc1c(C(=O)N2CCOCC2)sc(NC(=O)c2ccc([N+](=O)[O-])cc2)c1C#N,x,2.6,0.71,1.0,2,9,-1.7,i,x
C[C@@H]1CN([C@@H](C)CO)C(=O)c2cc(N(C)C)ccc2O[C@@H](C)CCCCO[C@@H]1CN(C)S(C)(=O)=O,x,x,x,-1.2,3,-2,2.7,i,x
CCOc1ccc(S(=O)(=O)NCCC(=O)NCc2ccncc2)cc1,2,1.9,0.64,-2.0,12,6,1.6,i,-4%
NC(=O)NC(=O)COC(=O)CNS(=O)(=O)c1ccc(F)c(F)c1F,x,2.5,0.71,-9.7,12,7,-0.6,i,x
Cc1nc(N/N=C/c2ccc(O)cc2O)cc(N2CCOCC2)n1,95*,-0.3,x,70*,-37*,-27*,-5.4*,i,1%
C[C@H]1CN([C@@H](C)CO)C(=O)c2cccc(NC(=O)Nc3ccc4c(c3)OCO4)c2O[C@@H]1CN(C)C(=O)Nc1ccc2c(c1)OCO2,x,x,x,-3.9,3,8,-2.8,i,x
O=C(N/N=C/c1ccccc1)c1cc(-c2ccc3c(c2)OCO3)n[nH]1,5,-1.1,x,0.6,-20*,4.8*,6.4*,i,x
CCc1ccc(S(=O)(=O)NC(CC(=O)O)c2ccccc2)cc1 (stereo not drawn),-3,2.6,0.75,x,x,x,x,x,13%
CC(CCc1ccccc1)NC(=O)c1ccccc1C(=O)O (stereo not drawn),-3,-0.6,0.68,0.1,3,12,0.8,i,2%
CC=Cc1ccc2n(c1=O)C[C@H]1[C@H](CO)[C@@H](C(=O)NCCN3CCCC3)N(C(=O)NC(C)C)[C@@H]21 (mixture of isomers),x,x,x,-0.7,2,7,0.6,i,x

# Reformatted: 4 of the compounds above.
Molecule | ALR inh | HNF4A DNA FP | E coli growth | AF4-AF9 inh | Ecoli rRNA inh | Ecoli rRNA inh OD600 | Ecoli rRNA inh RFP | FGF22 binding | Vif TR-FRET
CCOc1ccc(S(=O)(=O)NCCC(=O)NCc2ccncc2)cc1 | 2 | 1.9 | 0.64 | -2.0 | 12 | 6 | 1.6 | i | -4%
NC(=O)NC(=O)COC(=O)CNS(=O)(=O)c1ccc(F)c(F)c1F | x | 2.5 | 0.71 | -9.7 | 12 | 7 | -0.6 | i | x
Cc1nc(N/N=C/c2ccc(O)cc2O)cc(N2CCOCC2)n1 | 95* | -0.3 | x | 70* | -37* | -27* | -5.4* | i | 1%
C[C@H]1CN([C@@H](C)CO)C(=O)c2cccc(NC(=O)Nc3ccc4c(c3)OCO4)c2O[C@@H]1CN(C)C(=O)Nc1ccc2c(c1)OCO2 | x | x | x | -3.9 | 3 | 8 | -2.8 | i | x

# The listing picks up, starting 7 compounds before the break.
SMILES,ALR inh,HNF4A DNA FP,E coli growth,AF4-AF9 inh,Ecoli rRNA inh,Ecoli rRNA inh OD600,Ecoli rRNA inh RFP,FGF22 binding,Vif TR-FRET
NC(=O)NC(=O)COC(=O)CNS(=O)(=O)c1ccc(F)c(F)c1F,x,2.5,0.71,-9.7,12,7,-0.6,i,x
Cc1nc(N/N=C/c2ccc(O)cc2O)cc(N2CCOCC2)n1,95*,-0.3,x,70*,-37*,-27*,-5.4*,i,1%
C[C@H]1CN([C@@H](C)CO)C(=O)c2cccc(NC(=O)Nc3ccc4c(c3)OCO4)c2O[C@@H]1CN(C)C(=O)Nc1ccc2c(c1)OCO2,x,x,x,-3.9,3,8,-2.8,i,x
O=C(N/N=C/c1ccccc1)c1cc(-c2ccc3c(c2)OCO3)n[nH]1,5,-1.1,x,0.6,-20*,4.8*,6.4*,i,x
CCc1ccc(S(=O)(=O)NC(CC(=O)O)c2ccccc2)cc1 (stereo not drawn),-3,2.6,0.75,x,x,x,x,x,13%
CC(CCc1ccccc1)NC(=O)c1ccccc1C(=O)O (stereo not drawn),-3,-0.6,0.68,0.1,3,12,0.8,i,2%
CC=Cc1ccc2n(c1=O)C[C@H]1[C@H](CO)[C@@H](C(=O)NCCN3CCCC3)N(C(=O)NC(C)C)[C@@H]21 (mixture of isomers),x,x,x,-0.7,2,7,0.6,i,x
Cc1cccc(C)c1NC(=O)CN(c1ccccn1)S(=O)(=O)c1ccc(F)cc1,-2,-1.5,0.66,-1.5,9,8,3.5,i,5%
CCS(=O)(=O)Nc1ccc2c(c1)C(=O)N(C)C[C@H](OC)[C@H](C)CN(C(=O)CN(C)C)[C@H](C)CO2,x,x,x,-2.0,0,1,-1.2,i,x
Cc1c(C=Nc2ccc(S(=O)(=O)CCO)cc2)c(O)[nH]c(=O)c1C#N,-3,-2.1,0.71,-0.9,x,x,x,i,x
C[C@@H](NC(=O)C[C@@H]1C[C@@H]2c3cc(NC(=O)C4CCOCC4)ccc3O[C@@H]2[C@@H](CO)O1)c1ccccc1,x,x,x,-2.3,9,6,0.2,i,x
CCC1=C(OC(=O)N(CC)CC)N2C(=O)OC(=NCc3ccccc3)[C@]2(C)[C@H]2C1=CC[C@H]1C(=O)N(CC)C(=O)[C@H]12,-3,-3.6,x,4.4,1,6,-7.8,i,x
CC(Oc1ccc(F)cc1)c1nnc(SCC(=O)N(c2ccccc2)C2CCS(=O)(=O)C2)o1 (stereo not drawn),x,-4.0,0.67,-5.9,5,-1,-2.4,i,14%
COc1ccccc1-c1c(C)oc2c(CN3CCCC(C)C3)c(O)ccc2c1=O (stereo not drawn),x,-1.1,0.67,-3.2,-2,4,-1.2,i,-2%
COC(=O)C[C@@H]1CC[C@H]2[C@H](COc3ccc(NC(=O)c4ccccc4F)cc3C(=O)N2C)O1,x,x,x,1.1,-1,-2,-0.4,i,x
CCCOC(=O)CCc1n[nH]c(=O)[nH]c1=O,-7,-0.7,0.71,x,x,x,x,x,12%
COc1cc(NC(=S)NCCc2ccc(S(N)(=O)=O)cc2)c(OC)cc1Cl,-50,3.0,0.63,2.7,-10,-8,-1.8,i,5%
Cc1ccc([N+](=O)[O-])cc1N/C=C1\CCc2ccccc2C1=O,-5,3.6,0.76,x,x,x,x,x,-2%
CC1=CS(=O)(=O)CC1Sc1nc2ccccc2[nH]1 (stereo not drawn),-1,-2.0,0.68,x,x,x,x,x,2%
COC(=O)c1ccc(C(=O)N2CCCC(C)(C(=O)NS(=O)(=O)C3CC3)C2)cc1 (stereo not drawn),x,1.8,x,-1.0,5,12,0.0,i,x
Cc1ccc(/C=N/NC(=O)C(O)c2ccccc2)o1 (stereo not drawn),-7,2.8,x,x,19,3,0.9,i,5%
COc1ccc(CCNC(=O)CSc2ccc(Br)cc2)cc1OC,-11,0.5,0.68,-2.5,8,3,1.4,i,-5%
C[C@@H]1CN([C@H](C)CO)C(=O)c2cc(NS(C)(=O)=O)ccc2O[C@@H]1CN(C)Cc1ccc(-c2ccccc2)cc1,x,x,x,4.6,-4,-8,4.4,i,x
Cc1ccc(S(=O)(=O)Nc2ccc3c(c2)C(=O)N([C@H](C)CO)C[C@H](C)[C@@H](CN(C)CC2CCCCC2)OCCCC[C@H](C)O3)cc1,x,x,x,9.8,1,0,2.5,i,x
COc1cccc(S(=O)(=O)N2C[C@@H](O)COC[C@@H]3O[C@H](CC(=O)NCCCN4CCOCC4)CC[C@H]32)c1,x,x,x,-0.7,0,2,-0.2,i,x
Cc1cc(C(=O)NN)c2cc(Br)ccc2n1,36,3.9,0.65,3.2,14,24,1.7,i,4%
Cc1ccccc1S(=O)(=O)N1C[C@@H](O)COC[C@H]2O[C@H](CC(=O)N3CCC(Cc4ccccc4)CC3)CC[C@@H]21,x,x,x,5.5,1,-11,7.5,i,x

# Records listed so far marked active in AF4-AF9 inh:
SMILES,ALR inh,HNF4A DNA FP,E coli growth,AF4-AF9 inh,Ecoli rRNA inh,Ecoli rRNA inh OD600,Ecoli rRNA inh RFP,FGF22 binding,Vif TR-FRET
Cc1nc(N/N=C/c2ccc(O)cc2O)cc(N2CCOCC2)n1,95*,-0.3,x,70*,-37*,-27*,-5.4*,i,1%

# The list goes on:
SMILES,ALR inh,HNF4A DNA FP,E coli growth,AF4-AF9 inh,Ecoli rRNA inh,Ecoli rRNA inh OD600,Ecoli rRNA inh RFP,FGF22 binding,Vif TR-FRET
C[C@H]1CN([C@@H](C)CO)C(=O)c2cc(NS(=O)(=O)c3ccccc3)ccc2O[C@@H]1CN(C)C(=O)Nc1ccc(F)cc1,x,x,x,-0.9,1,8,-1.2,i,x
COc1cc(CNc2ccc(N3CCCC3)cc2)ccc1OCc1ccccc1,x,-1.4,0.67,-14,4,6,-5.3,i,18%
CC(C)c1ccc(NC(=O)Cn2nnc(C(=O)NCc3ccco3)c2N)cc1,2,-0.2,0.64,-3.5,1,-2,-3.1,i,-2%
C[C@@H]1CN([C@@H](C)CO)C(=O)Cc2cc(NC(=O)Nc3ccccc3)ccc2O[C@@H]1CN(C)C,x,x,x,0.0,3,4,-0.4,i,x
Cc1ccc(Nc2nnc(SCC(=O)N(C)C3CCS(=O)(=O)C3)s2)cc1 (stereo not drawn),33,-0.6,0.67,0.0,10,18,-1.7,i,x
COc1ccc(NC(=O)CCC2CCCCC2)cc1S(=O)(=O)N1CCCCC1,-3,-3.5,0.73,-2.6,-15,-17,23,i,3%
COc1ccc(NS(=O)(=O)c2cccc(C(=O)N/N=C/c3c(F)c(F)c(F)c(F)c3F)c2)cc1,x,-3.3,x,1.9,2,-30,-3.2,i,x
CCOc1ccc(C(=O)CCN2CCCCC2)cc1,3,2.2,0.73,x,x,x,x,x,10%
COCCNC(=O)Cc1c(C)c2cc3c(cc2oc1=O)OC(C)(C)CC3,-9,0.1,0.67,1.3,12,11,0.6,i,-8%
COc1ccc(C(=O)C[n+]2cc(Br)cc3ccccc32)cc1[N+](=O)[O-],8,2.8,0.68,-18,3,9,3.2,i,-20%
C[C@@H]1CN([C@@H](C)CO)C(=O)c2cc(NC(=O)CCN3CCOCC3)ccc2O[C@@H]1CN(C)CC1CC1,x,x,x,-0.7,7,14,-1.2,i,x
COc1ccc(OC)c(NC(=O)C2CCN(S(C)(=O)=O)CC2)c1,-10,1.6,0.66,5.9,7,-11,0.5,i,3%
COc1ccc(C[C@H]2CCc3cnnn3COC[C@@H](C(C)C)NC2=O)cc1,x,x,x,15,1,4,-1.3,i,x
Nc1nnnn1-c1cccc([N+](=O)[O-])c1,x,-2.1,0.64,-4.6,7,10,-0.5,i,1%
COc1ccccc1C1CCN(C(=O)c2ccc(Cl)cc2)CC1,-1,-0.2,0.7,-7.0,-11,-33,-5.6,i,4%
Cc1cccc(NC(=O)C2CC(O)CN2C(=O)Oc2ccccc2)c1 (stereo not drawn),2,1.5,0.67,2.4,6,11,1.1,i,x
COc1ccccc1CNC(=O)CCNS(=O)(=O)c1cc(Br)cnc1N,-6,1.4,0.7,-2.3,-9,-15,-2.5,i,5%
N#Cc1ccc(S(=O)(=O)N2CCCCC2c2cc(C(=O)Nc3cccc4c3CCCC4)no2)cc1 (stereo not drawn),x,3.9,x,-1.6,-4,0,-0.9,i,x
Cc1cc(N2CCCC2=O)ccc1S(=O)(=O)NC1CCCCC1,0,2.1,0.71,-0.1,0,0,-0.2,i,x
CCC(C)NC(=S)Nc1ccc2nc(N3CCN(CC)CC3)cc(C)c2c1 (stereo not drawn),39,9.1,0.69,11,-1,-8,-2.5,i,13%
Nc1nc(N2CCCCC2)c(C=O)c(N2CCCCC2)n1,5,-0.3,0.66,-0.8,-3,-5,-7.3,i,-2%
CCNC(=O)Nc1ccc2c(c1)C(=O)N(C)[C@H]1CC[C@@H](CC(=O)NCc3ccc(F)cc3)O[C@@H]1CO2,x,x,x,-1.2,4,9,-0.4,i,x
COc1ccc(CNC(=O)c2ccccc2NS(C)(=O)=O)cc1,-1,1.9,x,-1.5,4,9,-1.5,i,2%

# These rows are one share of the data; count on the stated rates, not on these rows.
